Screening data from PubChem BioAssay.
PrP UTR inh: suppresses PrP 5' UTR mRNA reporter expression; cell-based PrP 5' UTR mRNA reporter, plate reader; inhibition, % (test concentration not listed); 340,000 tested, 0.35% active; AID 488862;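 active = every replicate at 50% or more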;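 also: 0 = median of the neutral control wells; tested in H4 reporter cells; numbers are from one replicate; inactives centre near -14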
Bead autofluor: flagged as autofluorescent in microsphere protease counterscreen; fluorescence intensity (concentration not given with the values); compound autofluorescence counterscreen, microsphere flow cytometry; hits give high values; 360,000 tested, 3.1% active;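 active = at least 3 SD above the mean of all compounds, about 16000 in these data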;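 also: 100 nL of 1 mM stock went into each well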
ugtP null kill: growth inhibition of S. aureus ugtP deletion strain. AID 1259309. 330,000 tested, 0.54% active. S. aureus RN4220 ugtP deletion, OD600 growth, 16 h; some inactives read as strong as hits. growth inhibition, % (no concentration beside the values);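 active = z-score under -3 and OD600 up to 0.15 on both plates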;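 also: plate controls were untreated wells for no effect and antibiotic for full effect; wells of about 80 µL received 100 nL stock; the first replicate is given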
RN4220 kill: kills Staphylococcus aureus RN4220. S. aureus RN4220 growth, OD600, 16 h. inhibition, % (test concentration not listed). 330,000 tested, 0.33% active;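 active = z-score of -3 or lower and OD600 up to 0.18 on both plates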;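 also: plate controls were untreated cells for no effect and reference antibiotic for full effect; stock transfer was 100 nL into about 80 µL; one replicate is shown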
Mtb hypoxia rep: inhibitors of hypoxia-regulated fluorescent reporter in Mycobacterium tuberculosis | AID 1159583 | 300,000 tested, 0.1% active | fluorescence inhibition, % (test concentration not listed) | M. tuberculosis hypoxia-regulated fluorescent reporter, fluorescence;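 active = 35 to 45% if threefold the growth effect, above 45% if 1.5-fold the growth effect; inactive = the rest, general growth blockers included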;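 also: wells of about 50 µL received 100 nL stock; 0% = vehicle wells and 100% = reference inhibitor wells; whole bacteria with a GFP reporter of the hypoxia response; strong numbers were not always called active; many hits fall short of the cut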
BJeLR lethal: BJeLR cell viability loss; BJeLR (HRASV12) viability, CellTiter-Glo ATP luminescence, 48 h; reference of the scale not given here; inhibition, % (no concentration beside the values); 300,000 tested, 0.17% active; AID 1554;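 active = replicate mean above 50%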;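 also: 50 nL library stock added to about 25 µL; numbers are from one replicate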
Mtb hypoxia rep growth: also measured in Mtb hypoxia rep; calls as there; growth inhibition, %; measured here: M. tuberculosis growth (absorbance);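 0% = vehicle and 100% = reference antibiotic; read after six days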
* = called active by the depositor; . = no result given.

A first look, two compounds:
item	structure	PrP UTR inh	Bead autofluor	ugtP null kill	RN4220 kill
1	CCOC(=O)c1ccc(N2C=C(C(=O)OC)C(c3cccc(O)c3)C(C(=O)OC)=C2)cc1	-6	3603	25	2.0
2	COc1cc(CC(=O)O)ccc1OCc1ccccc1	-4	.	8	3.4

item	Mtb hypoxia rep	Mtb hypoxia rep growth	BJeLR lethal
1	3	-3	-23
2	1	3	7

Results, from the start:
item	structure	PrP UTR inh	Bead autofluor	ugtP null kill	RN4220 kill
1	CCOC(=O)c1ccc(N2C=C(C(=O)OC)C(c3cccc(O)c3)C(C(=O)OC)=C2)cc1	-6	3603	25	2.0
2	COc1cc(CC(=O)O)ccc1OCc1ccccc1	-4	.	8	3.4
3	CCCc1ccc(OCc2ccc(C(=O)N3CCSCC3)o2)cc1	-66	4329	.	.
4	COC(=O)c1cc(C(=O)Nc2nnc(CC(C)(C)C)s2)cc([N+](=O)[O-])c1	-23	2413	-5	5.3
5	Oc1ccc(C=NN(Cc2ccccc2)c2ccccc2)c(O)c1O	.	.	5	8.7
6	Cc1ccccc1-c1nc(CS(=O)(=O)CC(=O)NC2CCCC2)c(C)o1	-8	5266	2	3.0
7	CCOC(=O)C1=C(C(C)=O)C(c2cccnc2)C(C#N)=C(N)O1 (centres undefined)	-4	2839	5	8.2
8	CCC1(c2ccc(F)cc2)NC(=O)N(CC(=O)N2CC(=O)Nc3ccccc32)C1=O (centres undefined)	3	5072	-4	6.1
9	O=c1c2[nH]cnc2n(-c2ccc(F)cc2)c(=O)n1Cc1ccccc1	-11	3113	1	0.8
10	CCOC(=O)c1[nH]c2ccccc2c1NC(=S)Nc1cc(C)ccc1C	-25	5895	-10	2.2

item	Mtb hypoxia rep	Mtb hypoxia rep growth	BJeLR lethal
1	3	-3	-23
2	1	3	7
3	.	.	-2
4	-10	1	11
5	-2	7	.
6	1	-2	2
7	8	3	5
8	10	0	2
9	-3	-8	-3
10	-12	-2	3

Additional compounds.
item	structure	PrP UTR inh	Bead autofluor	ugtP null kill	RN4220 kill
11	Cn1c(=O)c2[nH]c(CNCc3ccccc3Cl)nc2n(C)c1=O	-7	4196	-5	3.3
12	Cc1cc(Cl)ccc1OCC(=O)N1CCN(c2ncccn2)CC1	3	4503	12	10
13	CCN1CCc2nc(N)sc2C1	-22	3218	7	14
14	Cc1ccc(NP(=O)(c2ccccc2)c2nc3ccccc3s2)cc1 (centres undefined)	-21	4154	7	0.9
15	Cc1cccc(Nc2ccccc2C(=O)NCc2ccco2)c1C	-23	3191	46	-8.3
16	O=C(Nc1sc2c(c1C(=O)N1CCOCC1)CCCCC2)c1cccnc1	-6	3461	1	1.7
17	CCCS(=O)(=O)c1c(S(=O)(=O)CCC)c2c(N)cccn2c1C(=O)OC	-15	3738	-3	1.7
18	CCCCC(=O)Nc1nn(CC(C)C)c2nc3ccccc3cc12	6	21680*	-5	1.6
19	CCc1ccc(N2CC(C(=O)OCc3csc(CC(=O)Nc4ccccc4C)n3)CC2=O)cc1 (centres undefined)	-14	.	3	3.0
20	COc1ccc(CCNC(=O)c2cccnc2)cc1	-28	6265	-6	5.5

item	Mtb hypoxia rep	Mtb hypoxia rep growth	BJeLR lethal
11	.	.	5
12	7	9	-6
13	-3	-4	1
14	0	4	-1
15	6	0	2
16	-7	16	0
17	-2	-6	-4
18	0	9	-4
19	9	1	.
20	18	8	14

(listing goes on)
item	structure	PrP UTR inh	Bead autofluor	ugtP null kill	RN4220 kill
21	CN(CC(=O)NCCCc1ccccc1)Cc1ccc(Br)cc1	0	4027	15	0.7
22	CNC(=O)c1[nH]cnc1C(=O)NC(C)C(=O)OCc1ccccc1 (centres undefined)	.	.	-15	3.7
23	O=C1/C(=C\c2c(NCCOCCO)nc3ccccn3c2=O)SC(=S)N1Cc1ccco1	-3	3678	.	.
24	CCOC(=O)c1c(NC(=O)CSc2nnc(C)s2)sc2c1CCN(C)C2	-12	5722	-6	0.6
25	Cc1ccc(NC(=O)c2cc(S(=O)(=O)Nc3ccc(C)cc3)cs2)cc1	-1	3401	-30	-13
26	Cc1ccc(CNC(=O)C2CC(c3ccccc3F)=NO2)cc1 (centres undefined)	-28	4170	4	2.9
27	COc1ccc(C(=O)NC(=C(Cl)Cl)S(=O)(=O)c2ccc(C)cc2)cc1	-19	5744	8	-0.2
28	COc1cc(NC(=O)CSc2ccc3c(c2)OCCO3)cc(OC)c1OC	-24	4282	3	-1.4
29	O=C(O)c1ccccc1C=NNc1ccc(S(=O)(=O)N2CCCC2)cc1[N+](=O)[O-]	.	.	1	4.3
30	CSc1cccc(N/C(=N/S(=O)(=O)c2ccccc2)NN)c1	-21	3606	0	4.5

item	Mtb hypoxia rep	Mtb hypoxia rep growth	BJeLR lethal
21	-9	-3	-8
22	9	7	.
23	.	.	2
24	.	.	1
25	3	4	11
26	6	4	7
27	4	-2	-4
28	.	.	-10
29	18	4	.
30	3	2	3

Following part
item	structure	PrP UTR inh	Bead autofluor	ugtP null kill	RN4220 kill
31	CCCCOc1ccc(C(=O)NCCc2ccccc2)cc1	-37	3842	4	5.8
32	CC1CCC2(CC1)NC(=O)N(CC(=O)Nc1ccc(N3CCOCC3)cc1)C2=O (centres undefined)	-24	2000	-1	2.0
33	O=C(CN1CCN(S(=O)(=O)/C=C/c2ccccc2)CC1)Nc1ccccc1N1CCOCC1	-17	.	10	3.1
34	O=C1CC(C(=O)Nc2cccc3ccccc23)C2(CCCC2)O1 (centres undefined)	-21	4860	9	7.6
35	O=C(NCCCCC(NC(=O)c1ccc([N+](=O)[O-])cc1)C(=O)O)c1ccc([N+](=O)[O-])cc1 (centres undefined)	-8	3196	-1	-9.3
36	COc1ccc(S(=O)(=O)N2CCN(Cc3ccccc3)CC2)c(C)c1	-31	3745	10	2.9
37	COc1ccc(C(=O)NNC2=NS(=O)(=O)c3ccccc32)cc1OC	-15	5316	0	1.7
38	O=C(Nc1ccccc1)NC1(C(=O)N2CCN(c3ncccn3)CC2)CCCCC1	-19	3807	2	-0.3
39	CC(=O)Nc1ccc(S(=O)(=O)Nc2nc3ccccc3nc2Nc2ccc(O)c(C(=O)O)c2)cc1	-11	4772	9	5.4
40	FC(F)Oc1ccc(NC(=S)NC2CCCCCCC2)cc1	-60	5724	.	.

item	Mtb hypoxia rep	Mtb hypoxia rep growth	BJeLR lethal
31	2	6	0
32	-2	-6	5
33	14	9	17
34	18	8	1
35	24	-16	-2
36	2	-1	-8
37	11	16	-12
38	.	.	4
39	8	7	5
40	.	.	-8

Additional compounds:
item	structure	PrP UTR inh	Bead autofluor	ugtP null kill	RN4220 kill
41	COc1ccc2cc(CN(Cc3cccnc3)S(=O)(=O)c3ccccc3)c(=O)[nH]c2c1	-10	10003	6	-1.0
42	Cc1c(OC(C)C(=O)NCC2CCC(C(=O)O)CC2)ccc2c3c(c(=O)oc12)CCCC3 (centres undefined)	-19	5437	5	3.3
43	O=C(c1cccs1)N1CCC(C(=O)N2CCN(Cc3ccc4c(c3)OCO4)CC2)CC1	-3	2179	-2	-0.2
44	COC(=O)c1ccc(N/C=C\C(=O)c2ccc3c(c2)OCO3)cc1	-10	2228	-5	-0.4
45	COc1ccc(NS(=O)(=O)c2ccc3c(c2)NC(=O)CO3)cc1	-13	3688	1	0.6
46	CC(C)(C)SCCNC(=O)c1ccc(Cl)c(S(=O)(=O)N2CCOCC2)c1	-9	3151	-1	-0.3
47	O=[N+]([O-])c1ccc(O)c(/C=N/Nc2nn[nH]n2)c1	-14	1999	.	.
48	CN(C(=O)CN1C(=O)NC(C)(CCc2ccccc2)C1=O)c1ccccc1 (centres undefined)	-23	4359	7	2.5
49	CCc1nc(N2CCC3(CC2)OCCO3)c2nnn(Cc3ccccc3Cl)c2n1	-7	2428	25	-6.7
50	O=C(CCNC(=O)c1ccco1)Nc1cccc(Br)c1	-11	4168	8	-1.1

item	Mtb hypoxia rep	Mtb hypoxia rep growth	BJeLR lethal
41	-8	-4	4
42	0	5	-8
43	-3	20	-1
44	-8	3	-6
45	9	6	9
46	.	.	-2
47	.	.	-2
48	-2	-4	-9
49	7	7	-3
50	-8	5	21

Compounds above that contain a tert-butyl group (2):
item	structure	PrP UTR inh	Bead autofluor	ugtP null kill	RN4220 kill
4	COC(=O)c1cc(C(=O)Nc2nnc(CC(C)(C)C)s2)cc([N+](=O)[O-])c1	-23	2413	-5	5.3
46	CC(C)(C)SCCNC(=O)c1ccc(Cl)c(S(=O)(=O)N2CCOCC2)c1	-9	3151	-1	-0.3

item	Mtb hypoxia rep	Mtb hypoxia rep growth	BJeLR lethal
4	-10	1	11
46	.	.	-2

Next section:
item	structure	PrP UTR inh	Bead autofluor	ugtP null kill	RN4220 kill
51	COc1ccc(Cn2nnnc2CN2CCc3ccccc3C2)cc1	-17	3917	2	9.0
52	COc1cc2c(cc1OC)-c1cc3ccc4c(c3c[n+]1CC2)OCO4	-10	4059	-5	3.2
53	CCS(=O)(=O)N1CCC(C(=O)Nc2cc([N+](=O)[O-])ccc2C)CC1	-10	3719	13	5.1
54	COc1ccc(C(=O)Nc2ccc(S(=O)(=O)Nc3nccc(C)n3)cc2)cc1	-5	3254	5	0.7
55	CC1CCN(CCOc2ccccc2-c2ccccc2)CC1	-5	2311	-4	7.7
56	Cc1cccnc1CN1CCN(C(=O)CCc2nnc(CCc3ccccc3)o2)CC1	-35	4450	3	2.7
57	N#C/C(=C\c1c[nH]c2ccccc12)C(N)=O	-24	4310	-1	3.2
58	CCOC(=O)C1=CN(Cc2cccc(F)c2)S(=O)(=O)N(CC)C1c1ccccc1 (centres undefined)	-30	3461	3	-0.6
59	COc1cccc(OC)c1C(=O)NCCSC1CCCCC1	-22	2692	-5	3.4
60	C/C(=N/NC(=O)c1ccc(Br)o1)c1cccc(NC(=O)c2ccc(F)cc2)c1	-14	7607	.	.

item	Mtb hypoxia rep	Mtb hypoxia rep growth	BJeLR lethal
51	7	6	6
52	2	1	-5
53	10	9	5
54	23	16	-35
55	6	-4	-4
56	1	0	-6
57	11	9	0
58	-4	0	.
59	-3	14	1
60	.	.	5

Continued.
item	structure	PrP UTR inh	Bead autofluor	ugtP null kill	RN4220 kill
61	CC(=NN=C(N)N)c1ccccc1	.	.	4	9.2
62	COC(=O)C1=C(C)Nc2ncnn2C1c1ccccn1 (centres undefined)	-4	21583*	3	0.7
63	Cc1c(Cl)cccc1NC(=O)CC1NCCNC1=O (centres undefined)	-11	4304	-5	1.5
64	Cc1cccc(Oc2cc(N)cc([N+](=O)[O-])c2)c1	-16	3076	-7	6.1
65	COc1ccccc1-c1cc(C(=O)N2CCCC2)no1	-74	5861	5	5.6
66	O=C(COC(=O)COc1ccc(Cl)cc1Br)NC1CC1	-9	4187	4	3.0
67	CC(Oc1ccc(Br)cc1Br)C(=O)Nc1cccnc1 (centres undefined)	0	6151	1	1.8
68	c1ccc(CNC2=NCCS2)cc1	-16	2724	0	-0.5
69	COc1ccc2c(c1)CC/C(=C/c1ccco1)C2=O	-138	2537	9	21

item	Mtb hypoxia rep	Mtb hypoxia rep growth	BJeLR lethal
61	3	14	.
62	1	3	-5
63	7	9	2
64	14	0	0
65	1	-4	-13
66	4	2	.
67	5	4	.
68	.	.	3
69	15	9	8
